Screens deposited in PubChem BioAssay by several laboratories.
PABP FP inh – PABP-poly(A) binding inhibition | P11940 | PABP-poly(A) RNA binding, fluorescence polarization | 290,000 tested, 1% active | AID 2014 | inhibition, % at 35 µM;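 active = 50% or more with normal probe brightness, or confirmed in later tests; about a fifth of its hits are not listed in these tables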;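 also: calls also rest on retests at 20 µM and on dose response follow-up; controls were probe without protein and protein plus probe with vehicle; some compounds called inactive have numbers as strong as hits; many hits fall short of the cut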
Target sequence (P11940 whole entry, looked up): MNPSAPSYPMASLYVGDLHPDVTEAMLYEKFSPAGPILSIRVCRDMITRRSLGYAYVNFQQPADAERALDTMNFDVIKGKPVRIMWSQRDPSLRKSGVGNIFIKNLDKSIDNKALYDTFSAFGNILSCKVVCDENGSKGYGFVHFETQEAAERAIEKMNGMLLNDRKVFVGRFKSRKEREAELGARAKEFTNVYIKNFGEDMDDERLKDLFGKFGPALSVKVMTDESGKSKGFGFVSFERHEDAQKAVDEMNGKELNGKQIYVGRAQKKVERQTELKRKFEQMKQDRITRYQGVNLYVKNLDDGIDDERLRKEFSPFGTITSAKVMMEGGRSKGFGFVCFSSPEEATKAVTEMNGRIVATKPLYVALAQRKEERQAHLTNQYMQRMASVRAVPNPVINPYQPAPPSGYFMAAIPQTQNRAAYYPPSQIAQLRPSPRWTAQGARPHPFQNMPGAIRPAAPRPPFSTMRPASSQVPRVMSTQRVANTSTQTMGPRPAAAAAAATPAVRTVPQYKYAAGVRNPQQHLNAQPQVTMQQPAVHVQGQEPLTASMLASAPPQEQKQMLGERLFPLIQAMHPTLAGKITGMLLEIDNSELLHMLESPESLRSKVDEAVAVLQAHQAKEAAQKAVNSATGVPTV
CSC inhib – cancer stem cell inhibition | cancer stem cell-like cells viability, luminescence | 300,000 tested, 1.1% active | AID 2717 | inhibition, % at 7.5 µM;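 active = mean at 75% or more and at least half the replicates too; tested in HMLE shEcad cells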;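 also: 0% = median of negative and 100% = median of positive control wells; the first replicate is given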
eIF4H FP inh – inhibitors of RNA binding by human eIF4H | Q15056 | eIF4H fluorescence polarization binding assay | inhibition, % at 35 µM | 290,000 tested, 0.94% active;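 active = 50% or more with normal probe brightness, or confirmed in later tests; about a fifth of its hits are not listed in these tables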;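 also: calls also rest on retests at 20 µM and on dose response follow-up; 0% = protein and probe with vehicle and 100% = probe without protein; strong numbers were not always called active; many hits fall short of the cut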
MT1-MMP act inh – MT1-MMP (human) activation inhibition. HT1080 RFP-PRO-GFP cells, GFP/RFP ratio fluorescence, overnight; percent of plate control window, DMSO zero. AID 651647. GFP/RFP ratio change, % at 20 µM. P50281. 360,000 tested, 0.061% active;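 active = GFP/RFP ratio change of at least 30% with cell ATP level not reduced by more than half and red fluorescence within 50% of control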; also: strong numbers were not always called active
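Compound: 20 µM single dose, 1% DMSO / System: HT1080 RFP-PRO-GFP cells / Controls: DMSO and RFP-L50D-GFP cell wells / Read-out basis: GFP/RFP fluorescence ratio / Schedule: overnight compound exposure at 37 °C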
UUG fidelity – modulators of start codon recognition fidelity in yeast. S. cerevisiae UUG-firefly luciferase reporter, luminescence/redox ratio. activity score, % at 18.7 µM. 350,000 tested, 0.13% active;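 active = replicate mean at a twofold rise or more, about +100% in these data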;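 also: firefly luciferase made from a UUG start codon reports start codon fidelity; reporter light over untreated wells divided by growth signal over untreated wells; some hits fall short of that in this replicate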
Env fusion inh – inhibitors of HIV Env-mediated cell fusion | HeLa-JRFL Env/CEM21 cell fusion, luciferase | inhibition, % at 12.3 µM | 360,000 tested, 1.1% active | AID 651610;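 active = mean replicate inhibition score of at least 50 and every replicate individually at or above 50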;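 also: 0% = plate neutral controls and 100% = maraviroc near 300 nM; one replicate is shown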
Rce1 inh – yeast Ras-converting enzyme inhibition; yeast membranes, quenched prenylated peptide cleavage fluorescence; calls only; 290,000 tested, 0.27% active; AID 2563;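 active = fall in fluorescence gain of 50% or more versus controls, with final raw signal at or below 3038400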;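 also: plate controls were neutral control wells for no effect and wells lacking membranes for full effect; tested at 10 µM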
eIF4H FP inh retest – second read-out of eIF4H FP inh, no call of its own (marks repeat the call); inhibition, %; compound at 20 µM; confirmation average;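 mean of two retest wells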
PABP FP inh retest – second read-out of PABP FP inh, no call of its own (marks repeat the call); inhibition, %; compound at 20 µM; confirmation repeats;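 mean of two retest wells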
MT1-MMP act inh RFP – second read-out of MT1-MMP act inh, no call of its own (marks repeat the call); RFP signal change, %; measured here: RFP expression control read;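 0 = vehicle wells; hits needed this value within 50% of zero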
* hit, by the source's call; i = inactive; nt = not tested or not shown. Some of the compounds tested. The share of hits here may be higher or lower than overall.

SMILES | PABP FP inh | CSC inhib | eIF4H FP inh | MT1-MMP act inh | MT1-MMP act inh RFP | UUG fidelity | Env fusion inh | Rce1 inh | others
COc1ccc(Nc2nnc(Cc3ccncc3)c3ccccc23)c(OC)c1 | 6 | -10 | 1 | -6 | -6 | -10 | 4 | i
CCOC(=O)c1ccc(N2C(=O)CC(Sc3nc(C)cc(C)n3)C2=O)cc1 (stereo not drawn) | 1 | -10 | -4 | -2 | 2 | -3 | 5 | i
Cc1oc(/N=C/c2ccccc2)c(C#N)c1C | 13 | 99* | 60 | -14 | 7 | 17 | 6 | i | eIF4H FP inh retest=4;PABP FP inh retest=16
O=C1NCCCCC1NS(=O)(=O)c1ccc(Cl)cc1 (stereo not drawn) | 2 | nt | -12 | -1 | 2 | -10 | -6 | i
COc1cc(Cl)c(C)cc1NC(=O)c1ccccc1-n1cnnn1 | nt | nt | nt | -2 | 0 | -4 | -8 | nt
O=C(NNc1ccccn1)C(=O)NNS(=O)(=O)c1ccc(F)cc1 | -1 | 37 | 8 | 4 | 4 | nt | -17 | i
Cc1noc(C)c1S(=O)(=O)NCCCN1CCN(Cc2ccccc2)CC1 | 4 | 15 | -4 | nt | nt | nt | nt | i
O=c1[nH]c(SCc2ccccc2F)nc2ccccc12 | 6 | 1 | -2 | 2 | 4 | nt | 13 | i
CCCCNC(=O)CNC(=S)N(Cc1ccccc1F)C1CCCCC1 | 10 | -3 | -1 | -2 | -4 | -16 | 15 | i
C[C@H](NC(=O)c1cc2cc(Cl)ccc2n1C)C(=O)N[C@@H](C(=O)O)c1ccccc1 | 4 | -11 | -6 | -1 | 0 | -6 | -65 | i
CCN(CC(=O)Nc1ccc2c(c1)OCCO2)C(=O)c1ccc(C(F)(F)F)cc1 | nt | -14 | nt | 0 | 1 | -4 | -23 | i
COc1ccc(CCNC(=O)COc2coc(CN3c4ccccc4CC3C)cc2=O)cc1OC (stereo not drawn) | nt | -11 | nt | 4 | -18 | -14 | 36 | i
O=C(NCCCn1ccnc1)c1cc(C(=O)C2CCCCC2)c[nH]1 | 0 | 34 | 6 | 0 | -2 | nt | -6 | i
Cc1ccc(-c2nc(NC(=O)c3nn(C)cc3[N+](=O)[O-])sc2C)cc1C | 1 | nt | -5 | -18 | -32 | -9 | nt | i
COc1ccccc1C(=O)NCCC(=O)N1CCN(S(=O)(=O)c2cccc(Cl)c2)CC1 | nt | -11 | nt | 0 | -1 | -5 | nt | nt
CCCCCn1c(N(C)Cc2ccccc2)nc2c1c(=O)[nH]c(=O)n2C | 7 | -12 | 2 | 0 | -4 | -8 | 9 | i
O=[N+]([O-])c1cc(Br)c2nsnc2c1N1CCOCC1 | 13 | nt | -16 | -6 | -4 | -25 | 5 | i
O=C1c2ccccc2NC(c2ccccn2)N1c1ccc(Cl)cc1 (stereo not drawn) | 12 | -4 | 11 | -5 | -4 | -5 | nt | i
CCCCNc1nc2ccccc2n1CC(=O)N1CCc2ccccc2C1 | -7 | -10 | 7 | 0 | 1 | -2 | -2 | i
Cc1ccc(/C=N/NC(=O)C(NC(=O)c2ccccc2)c2n[nH]c(=O)c3ccccc23)cc1 (stereo not drawn) | 2 | -11 | -7 | 2 | 1 | -31 | nt | i
Cc1cc(NC(=O)Cn2nnc(-c3ccccc3NC(=O)c3ccccc3F)n2)no1 | -2 | -1 | 0 | -1 | -5 | -12 | 6 | i
Cc1ccc(S(=O)(=O)NCCC(=O)NCCCSc2ccccc2)cc1 | nt | 17 | nt | nt | nt | 1 | 15 | nt
COc1ccc(C(c2c(O)nc(SC)n(C)c2=O)c2c(O)nc(SC)n(C)c2=O)cc1O | -13 | 4 | 4 | -5 | 2 | nt | nt | i
CCOC(=O)Nc1sc(NS(=O)(=O)c2ccccc2)nc1C | 12 | -14 | -10 | 5 | 3 | -10 | -19 | i
O=C(O)CCc1ccc(-c2ccc(Br)cc2)n1-c1cccc(O)c1 | 14 | -19 | -4 | -4 | 0 | -11 | -9 | i
N#Cc1c(N)nc(N)nc1Nc1ccc(Br)cc1 | 2 | -16 | -11 | -1 | -12 | nt | -17 | i
Cc1cc(Oc2ccccc2)nc(OCC#N)n1 | 2 | -10 | 8 | 2 | 0 | -20 | -15 | i
O=C(NC1CCN(C(=O)Nc2ccc(F)cc2)CC1)c1ccccc1F | -2 | 8 | -1 | 0 | -1 | -9 | 14 | i
CCOC(=O)Nc1ccc2c(c1)N(C(=O)N1CCN(C)CC1)c1ccccc1CC2 | -7 | -2 | -7 | -12 | -4 | nt | -16 | i
O=C(NCc1ccco1)c1ccc2c(=O)n(CCC3=CCCCC3)c(=O)[nH]c2c1 | -9 | -6 | -4 | 2 | 1 | nt | 1 | i
Cc1ccnc(NC(=O)CCC(=O)N(CC(=O)NCCc2ccccc2)Cc2ccco2)c1 | 0 | nt | -5 | 5 | 3 | -4 | nt | nt
CC(=O)Nc1cccc(/C(C)=N/Nc2nc3ccccc3s2)c1 | -9 | 9 | -2 | 10 | -8 | nt | -122 | i
Cc1ccc(N=C2NC(=O)/C(=C/c3cccn3C)S2)cc1C | -10 | 50 | -12 | -3 | -10 | -7 | -39 | i
COc1cccc2sc(NNC(=O)c3nc4ccccc4s3)nc12 | 0 | 103* | 12 | 4 | 8 | -11 | 19 | i
CSc1nc(-c2ccc(F)cc2)cc(=O)[nH]1 | 109 | 1 | 4 | 0 | 7 | nt | 4 | i | eIF4H FP inh retest=2;PABP FP inh retest=2
CCCCn1c(N)c(N(CC(C)C)C(=O)c2c(CC)noc2C)c(=O)[nH]c1=O | nt | nt | nt | 6 | 4 | nt | 11 | i
CC(C)(C)NC(=O)CN(C(=O)CS(=O)CC(=O)Nc1ccc(F)cc1)c1ccc(Cl)cc1 (stereo not drawn) | -2 | -7 | 1 | 10 | -8 | 9 | -18 | i
CS(=O)(=O)Nc1ccc(C(=O)N2CCN(c3ccccc3F)CC2)cc1 | 9 | -5 | 0 | 0 | 2 | 18 | -56 | i
CCCCNC(=S)NNC(=O)c1c(C)nc2ccccn12 | -7 | -5 | -6 | -2 | -5 | nt | -3 | i
NS(=O)(=O)c1ccc(CCNCc2cc(Br)ccc2OCc2ccccc2F)cc1 | -9 | -6 | 1 | -7 | -16 | nt | 8 | i

A draw from above in order of heavy-atom count, lowest first.
SMILES | PABP FP inh | CSC inhib | eIF4H FP inh | MT1-MMP act inh | MT1-MMP act inh RFP | UUG fidelity | Env fusion inh | Rce1 inh | others
CCCCNC(=S)NNC(=O)c1c(C)nc2ccccn12 | -7 | -5 | -6 | -2 | -5 | nt | -3 | i
Cc1ccc(N=C2NC(=O)/C(=C/c3cccn3C)S2)cc1C | -10 | 50 | -12 | -3 | -10 | -7 | -39 | i
CC(=O)Nc1cccc(/C(C)=N/Nc2nc3ccccc3s2)c1 | -9 | 9 | -2 | 10 | -8 | nt | -122 | i
COc1cccc2sc(NNC(=O)c3nc4ccccc4s3)nc12 | 0 | 103* | 12 | 4 | 8 | -11 | 19 | i
CS(=O)(=O)Nc1ccc(C(=O)N2CCN(c3ccccc3F)CC2)cc1 | 9 | -5 | 0 | 0 | 2 | 18 | -56 | i
CCCCn1c(N)c(N(CC(C)C)C(=O)c2c(CC)noc2C)c(=O)[nH]c1=O | nt | nt | nt | 6 | 4 | nt | 11 | i
O=C(NCc1ccco1)c1ccc2c(=O)n(CCC3=CCCCC3)c(=O)[nH]c2c1 | -9 | -6 | -4 | 2 | 1 | nt | 1 | i
CCOC(=O)Nc1ccc2c(c1)N(C(=O)N1CCN(C)CC1)c1ccccc1CC2 | -7 | -2 | -7 | -12 | -4 | nt | -16 | i
CC(C)(C)NC(=O)CN(C(=O)CS(=O)CC(=O)Nc1ccc(F)cc1)c1ccc(Cl)cc1 (stereo not drawn) | -2 | -7 | 1 | 10 | -8 | 9 | -18 | i
Cc1ccnc(NC(=O)CCC(=O)N(CC(=O)NCCc2ccccc2)Cc2ccco2)c1 | 0 | nt | -5 | 5 | 3 | -4 | nt | nt

Remaining list, next part:
SMILES | PABP FP inh | CSC inhib | eIF4H FP inh | MT1-MMP act inh | MT1-MMP act inh RFP | UUG fidelity | Env fusion inh | Rce1 inh | others
CC(=O)CSc1ncnc2c1cnn2-c1ccccc1 | 5 | -8 | 4 | 4 | 1 | -27 | -113 | i
CNC(=S)N1CCN=C1Nc1nc(C)cc(C)n1 | 2 | -15 | 4 | 4 | 6 | -13 | -13 | i
CN(Cc1cccs1)C(=O)c1ccc(S(=O)(=O)NCc2ccco2)cc1 | -15 | 1 | -10 | -3 | -7 | nt | -22 | i
N#CC(C#N)=C1c2cc(S(N)(=O)=O)ccc2-c2ccc(S(N)(=O)=O)cc21 | 5 | nt | 22 | -9 | -2 | 16 | -1 | nt
Cc1ccnc(Nc2nc(-c3sc(C)nc3C)cs2)c1 | nt | 39 | nt | 0 | -31 | -20 | 15 | i
CCNC(=O)/C=C1\NC(C)(C)Cc2c1ccc1ccccc21 | 0 | -1 | 2 | -3 | -5 | -19 | nt | i
C=CCn1c(SCc2nc3cc(C(F)(F)F)ccc3c(=O)[nH]2)nc2sc(CC)cc2c1=O | -3 | 14 | -8 | -4 | 0 | -12 | 14 | i
COc1cc2nc(CN3CCN(S(=O)(=O)c4ccc(C)c(C)c4)CC3)[nH]c(=O)c2cc1OC | 22 | -5 | 0 | -5 | -4 | -7 | -3 | i
CS(=O)(=O)Nc1ccc(S(=O)(=O)N2CCCCCC2)cc1 | 0 | -8 | -1 | 3 | 3 | -13 | -26 | i
CC(=C\C(=O)O)/C(=C/c1ccco1)C(=O)O | 4 | nt | 12 | 2 | 9 | nt | -3 | i
Cc1ccc(S(=O)(=O)Nc2cc(-c3nn(C)c(=O)c4ccccc34)ccc2N2CCOCC2)cc1 | -1 | -4 | -1 | 3 | -6 | -11 | -5 | i
O=C(c1[nH]c(C(F)(F)F)nc1-c1ccccc1)N1CCN(c2ncc(C(F)(F)F)cc2Cl)CC1 | nt | nt | nt | 2 | -9 | -4 | 1 | nt
CCOC(=O)c1sc(C)c2c(=O)n(CC)nnc12 | 11 | -7 | -1 | 2 | -2 | -11 | -55 | i
N/C(Cc1cccc2ccccc12)=N\O | 1 | 9 | -2 | -11 | 2 | nt | 2 | i
CCOC(=O)c1oc2ccc(/C=N/O)c(Cl)c2c1C | -2 | 4 | -1 | 1 | 2 | nt | -41 | nt
Cc1nn(Cc2ccc(Cl)cc2)c(C)c1NC(=O)CSc1nc2c(c(C(F)(F)F)n1)CCc1ccccc1-2 | -3 | 30 | -6 | 1 | -10 | 12 | -6 | i
CCOC(=O)c1oc2ccc(CNC(C)(C)C)c(Cl)c2c1C | -12 | 40 | 9 | -4 | 1 | -4 | nt | i
CCn1c(SCC(=O)Nc2ccc3c(c2)OCCO3)nnc1C(C)C | 2 | nt | -7 | 4 | 6 | -3 | 4 | i
CC(C)Cc1nnc(NC(=O)c2cc3c(s2)CCC3)s1 | 16 | -7 | 54* | -4 | -2 | -14 | -13 | i | eIF4H FP inh retest=60*;PABP FP inh retest=21
COc1ccc(OC)c(CN2CCN(C(=O)c3ccco3)CC2)c1 | -2 | 1 | 8 | 6 | -4 | -10 | -1 | i
COCc1nnc(NC(=O)CSc2ccc(C)cc2)s1 | -8 | 4 | -10 | -6 | -3 | 7 | -28 | i
CCCCN(C(=O)C1CC(=O)N(c2ccc(OC)cc2OC)C1)c1c(N)n(CC(C)C)c(=O)[nH]c1=O (stereo not drawn) | 8 | -5 | 6 | 1 | 10 | -13 | 11 | i
O=C(NC1CCCCNC1=O)c1ccco1 (stereo not drawn) | -6 | nt | -8 | -2 | 1 | nt | 11 | i
